D2 potentiator – HTS Assay for Positive Allosteric Modulators of the Human D2 Dopamine Receptor: Primary Screen for Potentiators; D(2) dopamine receptor (Homo sapiens), P14416; HEK293 T-REx D2, calcium flux, EC20 dopamine potentiation; potentiation, % at 10 µM; 0.34% of 340,000 active; AID 485347, 2010;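 active = potentiation over 3 SD above the plate norm, cut at about 30% in these data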; also: 0% is about no effect
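Tetracycline-induced Hek293 Trex D2 cells, force-coupled to calcium, loaded with no-wash calcium dye. Compound added with 180 s kinetic read for agonism, then EC20 dopamine and a further 180 s read for potentiation.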
D1 PAM – Potentiators of Human D1 Dopamine Receptor: qHTS; D(1A) dopamine receptor (Homo sapiens), P21728; HEK293 TREx D1 cells, calcium flux, dopamine EC20 potentiation; potentiation, % at 10 µM; 0.036% of 360,000 active; in the data active = potentiation above about 30%; also: 0% is about no effect
Target sequence (P21728 whole entry, looked up): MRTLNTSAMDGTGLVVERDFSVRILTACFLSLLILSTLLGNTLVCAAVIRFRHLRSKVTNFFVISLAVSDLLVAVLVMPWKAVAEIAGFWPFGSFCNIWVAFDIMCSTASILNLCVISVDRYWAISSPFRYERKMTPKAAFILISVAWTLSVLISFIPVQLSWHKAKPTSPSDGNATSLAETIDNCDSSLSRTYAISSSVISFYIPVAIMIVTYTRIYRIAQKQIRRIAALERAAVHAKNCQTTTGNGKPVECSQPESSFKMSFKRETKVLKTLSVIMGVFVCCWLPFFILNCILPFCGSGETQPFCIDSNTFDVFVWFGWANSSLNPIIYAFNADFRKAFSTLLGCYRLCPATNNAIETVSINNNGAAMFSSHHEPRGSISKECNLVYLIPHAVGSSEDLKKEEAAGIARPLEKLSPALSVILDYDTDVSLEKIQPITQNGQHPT
RXFP1 antagonist – qHTS Assay for Antagonists of the Relaxin Receptor RXFP1. Relaxin receptor 1 (Homo sapiens), Q9HBX9. HEK293-RXFP1, relaxin-stimulated cAMP HTRF, 30 min; active compounds read low. activity change, negative = inhibition, % at 57.5 µM. 0.59% of 350,000 active;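 active = activity change of -60% or lower, but not beyond a set lower limit; inconclusive = change between -60% and -40%, or beyond the set limit; inactive = change above -40%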; also: % is scaled to controls: 0 for no effect and ±100 for the full control effect
D1 antagonist – Antagonist of Human D 1 Dopamine Receptor: qHTS; D(1A) dopamine receptor (Homo sapiens), P21728; HEK293 TREx D1 cells, calcium flux, dopamine EC80; active compounds read low; activity change, negative = inhibition, % at 10 µM; 3.2% of 360,000 active; AID 504652, 2011; in the data active = activity change below about -30%; also: % is scaled to controls: 0 for no effect and ±100 for the full control effect
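Calcium flux readout: force-coupled, inducible Hek293 Trex D1 line, cells induced overnight at 30 C with tetracycline, dye-loaded 30–90 min at RT. Antagonism scored against EC80 dopamine challenge given 180 s after compound.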
RXFP1 agonist – qHTS Assay for Agonists of the Relaxin Receptor RXFP1; Relaxin receptor 1 (Homo sapiens), Q9HBX9; HEK293T-RXFP1 cAMP TR-FRET, 30 min; response scale: percent of porcine relaxin response, buffer zero; Potency, µM (titrated, usually from 57.5 µM), without a hit: at the top dose activation, most hits filed as activators; 0.3% of 370,000 active; AID 2676, 2010; also: potency is read from the fitted curve at half-maximal effect; % is scaled to controls: 0 for no effect and ±100 for the full control effect; nearly all actives have a fitted effect of over 60% in size; many of its hits are not listed in these tables
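Agonist response is measured as cAMP accumulation in an RXFP1-transfected HEK293T line under PDE4 inhibition. Values are scaled between buffer-only and 29 nM porcine relaxin, and EC50s come from standard Hill equation fits.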
Apoferritin bind – qHTS Assay for Identification of Novel General Anesthetics; Ferritin light chain (Equus caballus), P02791; apoferritin/1-aminoanthracene competitive binding, fluorescence; 0.074% of 350,000 active; Potency, µM (top dose mostly 77.5 µM), inactives show at the highest dose activity change, negative = displacement, usual class: inhibitors; also: potency is read from the fitted curve at half-maximal effect; % is scaled to controls: 0 for no effect and ±100 for the full control effect; nearly all actives have a fitted effect of over 20% in size
Target sequence (P02791 2-175 limits assumed): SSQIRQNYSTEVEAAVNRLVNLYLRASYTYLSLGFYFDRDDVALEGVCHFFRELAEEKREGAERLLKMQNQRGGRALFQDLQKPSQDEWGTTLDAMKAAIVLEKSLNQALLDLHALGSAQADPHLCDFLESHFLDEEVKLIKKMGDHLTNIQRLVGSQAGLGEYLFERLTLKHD
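Horse-spleen apoferritin (10 uM) in 50% saturated 1-aminoanthracene in PBS was incubated 10 min at room temperature with compound. Fluorescence (ex 380, em 535 nm) was normalized to free and bound 1-AMA, with concentration-response fitted by a four-parameter Hill equation.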
Active calls of the source: *; ? = inconclusive; . = no result given; & = joins results of further samples; [ ] = remark or other dose. Unless noted, calls follow the shape of the dose curve; as a rule, active = well fitted curve in the direction sought with a large enough effect; inconclusive = small, poorly fitted or top-dose-only effect, or another doubt; inactive = no such curve, though single readings can be large; an effect the other way counts as inactive or inconclusive. The list is partial (hit frequency here may not be typical).

Every second line gives: D2 potentiator | D1 PAM | RXFP1 antagonist | D1 antagonist | RXFP1 agonist | Apoferritin bind
- CC[N+](CC)(CC)CC
  10.2 | 13.2 | 7.9 | 7.4 | 1.0% | 7.1%
- O=C(O)C1C(C(=O)O)C2(Cl)C(Cl)=C(Cl)C1(Cl)C2(Cl)Cl (centres undefined)
  9.1 | -0.4 | . | . | 0.0% | .
- O=C(CCCN1CCC(n2c(=O)[nH]c3ccccc32)CC1)c1ccc(F)cc1
  -14.1 | -5.5 | 11.4 | -43.7* | -0.1% | 1.5%[29.3 µM]
- OCC(Br)CBr (centres undefined)
  9.2 | -1.9 | . | . | -0.1% | .
- CCOS(C)(=O)=O
  -7.3 | -0.6 | . | . | -0.6% | .
- C[C@]12CC[C@H]3[C@@H](CC=C4C[C@@H](O)CC[C@@]43C)[C@@H]1CC[C@@H]2O
  . | . | -7.9 | . | . | .
- C[C@@H]1CN(C2CCC(C#N)(c3ccc(F)cc3)CC2)CC[C@]1(C(=O)O)c1ccccc1 (some centres undefined)
  -8.2 | 3.9 | -6.9 | 2.4 | 1.3% | .
- C[N+]1(C)C2CC(OC(=O)C(CO)c3ccccc3)CC1C1OC12 (centres undefined)
  0.9 | -1.6 | . | 0.1 | 1.8% | -1.0%
- CC(=O)O[C@H]1CC[C@@]2(C)C(=CC[C@@H]3[C@@H]2CC[C@]2(C)C(=O)CC[C@@H]32)C1
  12.8 | -6.2 | . | 0.0 | 0.2% | .
- CCCCOC(=O)c1ccccc1C(=O)OCCCC
  9.9 | -3.0 | -23.4 | 6.1 | 0.5% | -11.4%
- CN(C)C(=S)SSC(=S)N(C)C
  3.6 | -2.6 | 47.8 | 19.2 | -0.3% | 4.3%&-8.5%
- COC1=CC(=O)O[C@@H](/C=C\c2ccccc2)C1
  . | . | . | . | . | -18.0%[29.3 µM]
- Nc1ccc(Cl)cc1C(=O)c1ccccc1
  -3.8 | 1.3 | -2.4 | -8.4 | 1.8% | ?
- CCOCCN1CCN(c2nnc3n2-c2ccc(Cl)cc2C(c2ccccc2Cl)=NC3)CC1
  -0.2 | -1.8 | -2.3 | -2.1 | 0.1% | -23.4%
- C[C@@]12CCC(O)C[C@H]1CCC1C2CC[C@]2(C)C(=O)CCC12 (some centres undefined)
  . | . | . | . | . | -18.6%

Continuation:
Every second line gives: D2 potentiator | D1 PAM | RXFP1 antagonist | D1 antagonist | RXFP1 agonist | Apoferritin bind
- C[C@]12CCC(=O)C[C@H]1CC[C@@H]1[C@@H]2CC[C@]2(C)[C@@H](O)CC[C@@H]12
  6.1 | 19.2 | . | 9.6 | 0.7% | .
- Clc1cnc(Oc2ccc(Oc3ncc(Cl)cc3Cl)cc2)c(Cl)c1
  -8.0 | -2.6 | 20.4 | 0.1 | -0.6% | -1.7%
- C[N+](C)(C)CC(=O)[O-]
  . | . | . | . | . | -3.1%
- CNC(=O)Oc1ccc2c(c1)[C@]1(C)CCN(C)[C@@H]1N2C
  -7.3&-6.1 | 0.8&-2.6 | -6.5 | 9.2&-2.7 | 3.1%&3.1% | -3.1%&-2.9%&-4.7%

13 compounds out of the list, arranged by SMILES length, smallest number first:
Every second line gives: D2 potentiator | D1 PAM | RXFP1 antagonist | D1 antagonist | RXFP1 agonist | Apoferritin bind
- OCC(Br)CBr (centres undefined)
  9.2 | -1.9 | . | . | -0.1% | .
- CCOS(C)(=O)=O
  -7.3 | -0.6 | . | . | -0.6% | .
- C[N+](C)(C)CC(=O)[O-]
  . | . | . | . | . | -3.1%
- CN(C)C(=S)SSC(=S)N(C)C
  3.6 | -2.6 | 47.8 | 19.2 | -0.3% | 4.3%&-8.5%
- Nc1ccc(Cl)cc1C(=O)c1ccccc1
  -3.8 | 1.3 | -2.4 | -8.4 | 1.8% | ?
- COC1=CC(=O)O[C@@H](/C=C\c2ccccc2)C1
  . | . | . | . | . | -18.0%[29.3 µM]
- Clc1cnc(Oc2ccc(Oc3ncc(Cl)cc3Cl)cc2)c(Cl)c1
  -8.0 | -2.6 | 20.4 | 0.1 | -0.6% | -1.7%
- C[N+]1(C)C2CC(OC(=O)C(CO)c3ccccc3)CC1C1OC12 (centres undefined)
  0.9 | -1.6 | . | 0.1 | 1.8% | -1.0%
- C[C@@]12CCC(O)C[C@H]1CCC1C2CC[C@]2(C)C(=O)CCC12 (some centres undefined)
  . | . | . | . | . | -18.6%
- CCOCCN1CCN(c2nnc3n2-c2ccc(Cl)cc2C(c2ccccc2Cl)=NC3)CC1
  -0.2 | -1.8 | -2.3 | -2.1 | 0.1% | -23.4%
- C[C@@H]1CN(C2CCC(C#N)(c3ccc(F)cc3)CC2)CC[C@]1(C(=O)O)c1ccccc1 (some centres undefined)
  -8.2 | 3.9 | -6.9 | 2.4 | 1.3% | .
- C[C@]12CC[C@H]3[C@@H](CC=C4C[C@@H](O)CC[C@@]43C)[C@@H]1CC[C@@H]2O
  . | . | -7.9 | . | . | .
- CC(=O)O[C@H]1CC[C@@]2(C)C(=CC[C@@H]3[C@@H]2CC[C@]2(C)C(=O)CC[C@@H]32)C1
  12.8 | -6.2 | . | 0.0 | 0.2% | .

Bioassay records (PubChem BioAssay)
